Mtb betalactam: beta-lactam sensitization of Mtb H37Rv, H37Rv; M. tuberculosis H37Rv growth with meropenem, percent inhibition; hits of this screen are not shown here; inhibition, % at 25 µM; hit rate 0.27% among 330,000;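 active = about 74% or more and at least 40 points above the plate without the antibiotic, then above 30% in a dose series; inconclusive = first-round hits that could not be retested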;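 note: growth measured after seven days incubation then overnight dye step; 0% = bacteria only wells and 100% = bacteria with antibiotic; twin plates without the antibiotic show which effects depend on it; some results filed as inactive read as strong as hits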
RecA splice inh: Mtb RecA intein splicing inhibitors, primary screen, biochemical, fluorescence, HTS; Protein RecA (Mycobacterium tuberculosis (strain ATCC 25618 / H37Rv)), P9WHJ3; cell-free RecA intein splicing; inhibition, %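 (about 9 µM by stock and volumes)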; hit rate 0.75% among 290,000; AID 2221, 2009; in the data active = inhibition above about 30%; inconclusive = no clear call, values can overlap the other calls;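 note: 0% = vehicle wells and 100% = reference inhibitor control wells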
Target sequence (P9WHJ3 whole entry, looked up, canonical isoform): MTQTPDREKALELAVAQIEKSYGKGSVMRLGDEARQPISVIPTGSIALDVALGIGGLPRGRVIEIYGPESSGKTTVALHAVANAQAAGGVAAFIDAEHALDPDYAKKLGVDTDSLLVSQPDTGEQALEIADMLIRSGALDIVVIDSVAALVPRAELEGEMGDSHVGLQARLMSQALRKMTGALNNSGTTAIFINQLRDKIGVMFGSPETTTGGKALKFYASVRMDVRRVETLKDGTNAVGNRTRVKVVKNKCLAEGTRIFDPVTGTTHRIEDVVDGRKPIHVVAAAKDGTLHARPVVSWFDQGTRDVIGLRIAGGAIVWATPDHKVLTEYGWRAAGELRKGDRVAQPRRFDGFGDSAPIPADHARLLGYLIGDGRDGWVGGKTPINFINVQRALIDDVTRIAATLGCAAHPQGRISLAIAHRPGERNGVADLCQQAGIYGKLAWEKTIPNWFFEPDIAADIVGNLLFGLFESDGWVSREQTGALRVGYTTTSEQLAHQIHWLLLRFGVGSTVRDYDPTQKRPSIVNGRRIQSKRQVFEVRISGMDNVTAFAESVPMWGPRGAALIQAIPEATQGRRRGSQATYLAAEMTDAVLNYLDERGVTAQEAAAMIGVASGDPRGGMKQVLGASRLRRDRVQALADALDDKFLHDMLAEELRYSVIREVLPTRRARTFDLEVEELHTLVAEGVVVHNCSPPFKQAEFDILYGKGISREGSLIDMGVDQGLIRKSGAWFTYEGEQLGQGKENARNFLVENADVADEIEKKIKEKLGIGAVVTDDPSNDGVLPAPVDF
Arbovirus inh: antivirals against arbovirus infection, primary screen, cell-based, full library, 10K replicate subset. arbovirus infection cell-based antiviral screen. inhibition, % at 10 µM. hit rate 0.37% among 200,000. AID 1251, 2008;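 active = inhibition from about 30%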;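 note: bluetongue infection of BSR cells; cell survival read as ATP light after 72 h; 0% = infected wells without compound and 100% = uninfected wells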
Mtb H37Rv: M. tuberculosis H37Rv growth inhibitors, H37Rv strain (AID 1626); M. tuberculosis H37Rv growth inhibition; higher % means a stronger effect; inhibition, % at 10 µM, or IC50 in µM where a hit was titrated; hit rate 0.95% among 220,000;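 active = confirmed in a dose series; inconclusive = inhibition above 80% but not taken into the dose series; inactive = below 80% or under 30% at every dose of the series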;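 note: bacteria incubated seven days before Alamar blue readout; 0% = bacteria only wells and 100% = bacteria with antibiotic wells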
YopH inh: YopH tyrosine phosphatase inhibitors, primary screen, biochemical, fluorescence Ex485/Em525; YopH tyrosine phosphatase [Yersinia enterocolitica]; inhibition, %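 (about 10 µM by stock and volumes)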; hit rate 0.16% among 140,000; AID 898, 2007;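 active = inhibition of 50% or more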;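 note: controls were vehicle for no effect and minimum signal wells for full effect; inactives centre near -20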
* marks the source's active call; other numbers are inactive results; ? = inconclusive; . = no result given.

Compound,Mtb betalactam,RecA splice inh,Arbovirus inh,Mtb H37Rv,YopH inh
Cn1c(SCc2cc(=O)[nH]c3ccccc23)nnc1-c1ccco1,-2,1.5,2,3%,-1
Cc1ccc(S(=O)(=O)n2c3ccc(Cl)cc3c3nc(C)sc32)cc1,.,7.3,-5,4%,-7
COc1ccc([C@H]2Oc3cc(O)cc(O)c3C(=O)C2[C@@H]2C(=O)c3c(O)cc(O)cc3O[C@@H]2c2ccc(OC)cc2)cc1 (some centres not stated),-8,16,.,-8%,.
COc1ccccc1OCC(=O)Nc1ccc2c(c1)n(C)c(=O)n2C,-10,-4.0,-2,1%,.
CC1(C)CC2(CC(C)(C)NC(=O)N2)NC(=O)N1,-5,-0.6,16,.,-1
CCOC(=O)c1ccccc1NC(=O)C1CCN(c2ncnc3sc(C)c(C)c23)CC1,49,0.3,.,.,.
O=S1(=O)CCOC[C@H](CC2CCCCC2)N1Cc1ccc(F)cc1,3,2.2,.,.,.
CCOC(=O)c1cc(-c2ccccc2)sc1NC(=O)C(C)N1C(=O)NC(C)(c2ccc(Cl)cc2)C1=O (configuration not stated),75,0.4,-21,72%,-7
CC(=O)Nc1cc(C(C)(C)C)c(O)c(C(C)(C)C)c1,5,-2.4,-3,-1%,-8
[O-][n+]1c2c(nn1-c1ccc(Cl)c(Cl)c1)-c1nonc1CC2,2,-1.6,16,6%,.
Cc1nn(C)c(=O)n1-c1ccc(Oc2ccccc2)cc1,6,1.7,3,0%,-42
O=C(COC(=O)c1cccc(NS(=O)(=O)/C=C/c2ccccc2)c1)Nc1ccccc1OC(F)F,-4,3.7,-5,0%,-23
O=C(/C=C/c1ccccc1[N+](=O)[O-])NCc1ccccc1Cl,-8,-2.8,-4,10%,.
COC(=O)C1=C(N)c2c(F)cccc2C1(C#N)c1ccccc1 (configuration not stated),-1,1.4,-6,-11%,-31
COc1ccc(-c2cc(C(=O)N3CCN(c4ncccn4)CC3)c3ccccc3n2)c(OC)c1,7,5.5,3,-2%,-23
C[C@H]1CC[C@@]2(O[C@@H](CCO)C[C@@H](O)[C@@H]2O)O1,-3,-0.1,3,-7%,.
COc1cccc(-c2nnc(SCc3ccc(C#N)cc3)n2Cc2ccco2)c1,-7,5.3,-4,7%,-55
COc1ccc2cc(C#N)c(N3CCOCC3)nc2c1,5,-7.5,.,.,.
Cc1cccc(Nc2ncnc3onc(-c4cccc(Cl)c4)c23)c1,2,4.1,.,.,.
CCN1CCN(C(=O)c2sc3ncnc(N4CCc5ccccc5C4)c3c2C)CC1,3,1.2,14,0%,.
CCOc1ccc(C(=O)NC2CCN(C(=S)NCc3ccco3)CC2)cc1,14,0.1,7,16%,-26
Cc1oc2ccc(OC(=O)N3CCOCC3)cc2c1C(=O)OC(C)C,3,-1.4,2,2%,-31
O=C(NNc1ncnc2ccccc12)c1cccc(Cl)c1,14,-2.8,.,2%,.
Cc1cccc(OCCN2C(=O)C(=O)c3cccc(C)c32)c1,3,2.0,-11,6%,-32
O=C(O)c1ccc(-n2nnnc2SCc2ccccc2Br)cc1,-4,0.5,.,.,.
COC(=O)c1cc(S(=O)(=O)N2CCN(c3ccc(F)cc3)CC2)cn1C,1,1.0,.,.,.
O=C(c1ccccc1[N+](=O)[O-])N1CCCN(C(=O)c2ccccc2[N+](=O)[O-])CC1,1,-3.7,1,-9%,-27
N#Cc1c(NC(=O)CCn2cnc3ccccc3c2=O)oc(-c2ccccc2)c1-c1ccccc1,25,22,-7,9%,-31
O=C(NCc1ccco1)c1cnc2n(c1=O)CCS2,-18,-0.3,.,-11%,-4
O=C(Nc1ccccc1)Nc1ccccc1NS(=O)(=O)c1cccs1,1,4.2,2,-5%,-29
CCCc1cc(C(=O)Nc2ccn(Cc3ccc(C)cc3)n2)no1,83,4.2,.,66%,.
COC(=O)CC1C(=O)NCCN1C(=O)CSc1nnc(Nc2ccc(OC)cc2)s1 (configuration not stated),-4,-1.1,-1,-2%,-28
O=C(NCCN1CCCOC1=O)C(=O)NCCN1CCCOC1=O,4,-1.7,.,0%,.
COc1ccc(S(=O)(=O)N2CCCN(CC(=O)Nc3ccc(NC(C)=O)cc3)CC2)cc1,0,-8.3,.,.,.
COC(=O)c1ccsc1NC(=O)CCc1ccccc1,1,4.7,.,.,.
Cc1c(Cl)c([N+](=O)[O-])nn1CC(=O)N1CCCC1,4,-0.3,4,-5%,-28
COc1ccc(-c2nnn(CC(=O)N(CCN3CCOCC3)C(C(=O)NC3CCCC3)c3ccco3)n2)cc1 (configuration not stated),-1,.,4,1%,.
CC1(C)Cc2c(c(N3CCOCC3)nc3sc4c(NCc5ccco5)nnnc4c23)CS1,66,4.1,-24,57%,-6
CSc1ccccc1NC(=O)c1ccccc1,-4,.,18,-5%,.
COc1ccccc1CNC(=O)C(C)n1nc(C)c2c(C)n(-c3ccccc3)nc2c1=O (configuration not stated),-5,3.3,.,.,.
O=C(COC(=O)/C=C/c1ccccc1)Nc1cccc(Oc2ccccc2)c1,-3,0.0,-4,5%,-26
O=C(NC(=S)Nc1ccc(S(=O)(=O)Nc2nccs2)cc1)c1ccc(F)c(F)c1,2,-2.3,1,.,-10
Cc1cc(C)nc(NC(=O)c2ccc(Cl)cc2)n1,-12,3.6,-3,-3%,.
CCC1SC2=NC(C)=C(C(=O)OC)C(c3ccc(C)cc3)N2C1=O (configuration not stated),-4,3.4,-6,-7%,1
COc1ccc(OCC(=O)Nc2ccc(S(=O)(=O)Nc3cc(C)on3)cc2)cc1,8,2.7,.,.,.
CC1(C)Cc2nc3sc4c(N(CCO)CCO)ncnc4c3cc2CO1,0,0.9,2,3%,-17
COc1ccc(OCC(=O)N/N=C(\C)CC(=O)Nc2cccc([N+](=O)[O-])c2)cc1,2,2.9,3,0%,.
COc1ccc(N2CCN(C(=O)C3=NNC(=O)CC3)CC2)cc1,6,-1.9,-4,1%,-3
O=C(Nc1ccc(S(=O)(=O)NCc2ccccc2)cc1)Nc1ccc2c(c1)OCO2,2,3.1,-20,12%,-2
COc1ccc(NC(=O)COC(=O)c2ccc(F)cc2F)cc1,12,2.0,18,5%,.
Cc1ccc(N(CC(=O)NCCSCc2ccco2)S(=O)(=O)c2ccc(F)cc2)cc1,11,0.9,-5,1%,.
CCn1ccnc1CN(C)Cc1cn(-c2cccc(C)c2)nc1-c1cccc(F)c1,99,7.9,-29,2.6µM*,.
O=[N+]([O-])c1ccc(N=NNc2ccccc2)cc1,-4,10,-16,-5%,.
Cc1nc(Oc2ccc(Cl)cc2)c2oc3ccccc3c2n1,6,-0.5,-1,-2%,-34
Cn1cccc1/C=N/NC(N)=S,16,1.4,-2,-3%,.
Oc1c(C(c2ccco2)N2CCOCC2)sc2ncnn12 (configuration not stated),2,0.5,2,60%,-49
Cc1onc(-c2ccccc2)c1C(=O)Nc1nncs1,-2,0.7,.,.,.
CCOc1ccc(C(=O)Nn2cnnc2)cc1OCC,3,-0.4,.,13%,.
CCNC(=O)c1ccc(C2SCC(=O)N2CCc2ccccc2)cc1 (configuration not stated),-7,0.4,1,55%,-25
Cc1ccsc1C(=O)N1CCN(c2ncc(C(F)(F)F)cc2Cl)CC1,17,3.8,.,.,.

New compounds follow
Compound,Mtb betalactam,RecA splice inh,Arbovirus inh,Mtb H37Rv,YopH inh
CCOc1cc(C)c(Cl)cc1S(=O)(=O)NCCOC,-1,-3.6,7,-3%,-27
Cc1nn(C)c(Cl)c1CN1CCCC(CO)(Cc2cccc(Cl)c2)C1 (configuration not stated),10,-3.6,-1,-4%,.
CC(NC(=O)Nc1ccccc1)C(c1ccccc1)N1CCOCC1 (configuration not stated),-3,-2.6,1,-10%,-29
O=C(NC1CCS(=O)(=O)C1)C1C2CC3CC(C2)CC1C3 (configuration not stated),-5,-4.8,-12,1%,.
O=C(O)CNC(=O)c1ccc(NC(=O)/C(=C/c2ccccc2)NC(=O)c2ccccc2Br)cc1,-6,-1.5,.,.,.
CCCN(CC(=O)Nc1ccccc1C)C(=O)COC(=O)CSc1ccc([N+](=O)[O-])cc1,-2,-1.8,.,.,.
FC(F)(F)c1nnc2ccc(N3CCN(c4ccccc4)CC3)nn12,-6,-1.2,0,-2%,-12
CC(C)(C)N(Cc1ccccc1)C(=O)COC(=O)[C@@H]1CCCN1C(=O)c1cccs1,-7,4.3,.,.,.
CN(c1ccccc1)C1CCCCC1NS(=O)(=O)c1ccc(Cl)cc1 (configuration not stated),-3,17,-12,15%,-14
Cc1ccc(CN2C3CCCC2CC(NC(=O)c2ccc(F)cc2)C3)cc1 (configuration not stated),-6,-1.2,.,.,.
OCCCN=c1cc(-c2ccccc2)oc2ccc(Cl)cc12,87,0.5,-33,5%,6
COc1cccc(CN(C)C(=O)CCc2nnc(-c3ccsc3)o2)c1,1,-1.6,4,-9%,.
COc1ccccc1N1CCN(C(=O)c2c(-c3ccccc3)noc2C)CC1,-2,1.8,3,0%,-44
Cc1ccc2c(c1)C1CC(C)(O2)N(c2cccc(C(=O)NCc3ccccn3)c2)C(=O)N1 (configuration not stated),1,-0.5,.,.,.
Oc1ccc(-c2cn3c(n2)SCC3)cc1,-6,2.5,-3,-2%,-13

Reformatted with two lines to a compound: entries from further up.
Value order: Mtb betalactam | RecA splice inh | Arbovirus inh | Mtb H37Rv | YopH inh
> CCOc1cc(C)c(Cl)cc1S(=O)(=O)NCCOC
→ -1 | -3.6 | 7 | -3% | -27
> Cc1nn(C)c(Cl)c1CN1CCCC(CO)(Cc2cccc(Cl)c2)C1 (configuration not stated)
→ 10 | -3.6 | -1 | -4% | .
> CC(NC(=O)Nc1ccccc1)C(c1ccccc1)N1CCOCC1 (configuration not stated)
→ -3 | -2.6 | 1 | -10% | -29
> O=C(NC1CCS(=O)(=O)C1)C1C2CC3CC(C2)CC1C3 (configuration not stated)
→ -5 | -4.8 | -12 | 1% | .
> O=C(O)CNC(=O)c1ccc(NC(=O)/C(=C/c2ccccc2)NC(=O)c2ccccc2Br)cc1
→ -6 | -1.5 | . | . | .
> CCCN(CC(=O)Nc1ccccc1C)C(=O)COC(=O)CSc1ccc([N+](=O)[O-])cc1
→ -2 | -1.8 | . | . | .
> FC(F)(F)c1nnc2ccc(N3CCN(c4ccccc4)CC3)nn12
→ -6 | -1.2 | 0 | -2% | -12
> CC(C)(C)N(Cc1ccccc1)C(=O)COC(=O)[C@@H]1CCCN1C(=O)c1cccs1
→ -7 | 4.3 | . | . | .
> CN(c1ccccc1)C1CCCCC1NS(=O)(=O)c1ccc(Cl)cc1 (configuration not stated)
→ -3 | 17 | -12 | 15% | -14
> Cc1ccc(CN2C3CCCC2CC(NC(=O)c2ccc(F)cc2)C3)cc1 (configuration not stated)
→ -6 | -1.2 | . | . | .
> OCCCN=c1cc(-c2ccccc2)oc2ccc(Cl)cc12
→ 87 | 0.5 | -33 | 5% | 6
> COc1cccc(CN(C)C(=O)CCc2nnc(-c3ccsc3)o2)c1
→ 1 | -1.6 | 4 | -9% | .

(next part)
Compound,Mtb betalactam,RecA splice inh,Arbovirus inh,Mtb H37Rv,YopH inh
O=S(=O)(c1ccccc1)C1Cc2ccccc2C1Cl (configuration not stated),-4,-0.5,.,.,.
Nc1nc(N)c2ncc(C(=O)CCc3ccccc3)nc2n1,0,-46,-5,-6%,.
Cc1ccc(C=C2C(=O)c3ccccc3C2=O)s1,8,-4.2,-9,-9%,-22
COc1ccc(S(=O)(=O)NCCc2ccccc2)cc1,1,0.7,0,12%,12
CN1CCN(C(=S)c2ccc(N(C)C)cc2)CC1,6,-0.3,5,-17%,14
COc1ccc(CCN(C)C(=O)c2ccc(COc3ccccc3)o2)cc1OC,8,3.7,.,.,.
Cc1cc(C(=O)COC(=O)c2ccncc2)c(C)n1CCc1ccc(F)cc1,13,3.5,4,2%,.
O=C(CSc1ncccn1)NC(=O)NCc1ccccc1,?,1.7,-5,-4%,-16
COc1ccccc1N1CCN(C(CNS(C)(=O)=O)c2cccnc2)CC1 (configuration not stated),-8,0.4,9,-1%,.
CC(C)OC(=O)CSc1nnc(-c2cnccn2)n1C,-3,-1.1,2,1%,-22
Cc1cc(C)c2nc(N3C(=O)C(O)=C(C(=O)c4ccco4)C3c3ccco3)sc2c1 (configuration not stated),6,4.7,.,.,.
COc1ccc(N(CC(=O)NCCC2=CCCCC2)S(=O)(=O)c2ccccc2)cc1OC,7,2.3,-2,1%,.

High-throughput results: PubChem BioAssay, several laboratories

An excerpt; count on the stated rates, not on these rows.
